From PubChem BioAssay
Six1-Eya2 blk: Six1/Eya2 interaction inhibition; Q15475+O00167; activity change, % (no concentration beside the values); AID 651725; AlphaScreen GST-Six1/His-Eya2 binding, biochemical; stronger effect = lower value; control for the full effect not named in the record; actives 0.56% (n = 360,000); in the data active = activity change below about -65%; inconclusive = about -30% to -65%; inactive = above about -30%; also: % is scaled to controls: 0 for no effect and ±100 for the full control effect; compound concentration not given in the record
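Homogeneous AlphaScreen proximity assay pairing GST-Six1 with His-tagged Eya2 (added as 5X mix: 250 nM and 500 nM) in 50 mM Tris pH 8.0, 300 mM NaCl, 1 mM TCEP. Glutathione donor and nickel acceptor beads; 1 h, 37 °C, dark.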
PINK1 modulator: PINK1 expression modulation. PINK1 immunofluorescence, high-content cytometry, 24 h. Potency, µM (titrated, usually from 76.6 µM), inactives show top-dose activation (PINK1 increase), hits mostly activators. actives 0.2% (n = 410,000). AID 624263; active = well fitted activation curve with a large enough effect; inconclusive = small, poorly fitted or top-dose-only effect; inactive = flat fitted curve, though single readings scatter; cell line not stated here;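 also: potency is read from the fitted curve at half-maximal effect; % of control where 0% means no effect; nearly all actives have a fitted effect of over 65% in size; a mitochondrial uncoupler was the plate control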
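Cells are seeded, rested 12 hours, then given compound at five concentrations or DMSO for 24 hours. After fixation, blocking and antibody staining, PINK1 amount and mitochondrial localization are scored; CCCP serves as control.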
D2 PAM: human D2 receptor positive allosteric modulation. P14416. DiscoveRx D2 beta-arrestin cells, luminescence, 90 min; 100% = 57 uM dopamine signal. potentiation, % (no concentration beside the values). actives 0.23% (n = 360,000). AID 624464; active = potentiation of 50% or more; inconclusive = 30% to 50%; inactive = 30% or less;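 also: compound concentration not given in the record; tested on top of an EC20 dose of dopamine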
Target sequence (P14416 whole entry, looked up): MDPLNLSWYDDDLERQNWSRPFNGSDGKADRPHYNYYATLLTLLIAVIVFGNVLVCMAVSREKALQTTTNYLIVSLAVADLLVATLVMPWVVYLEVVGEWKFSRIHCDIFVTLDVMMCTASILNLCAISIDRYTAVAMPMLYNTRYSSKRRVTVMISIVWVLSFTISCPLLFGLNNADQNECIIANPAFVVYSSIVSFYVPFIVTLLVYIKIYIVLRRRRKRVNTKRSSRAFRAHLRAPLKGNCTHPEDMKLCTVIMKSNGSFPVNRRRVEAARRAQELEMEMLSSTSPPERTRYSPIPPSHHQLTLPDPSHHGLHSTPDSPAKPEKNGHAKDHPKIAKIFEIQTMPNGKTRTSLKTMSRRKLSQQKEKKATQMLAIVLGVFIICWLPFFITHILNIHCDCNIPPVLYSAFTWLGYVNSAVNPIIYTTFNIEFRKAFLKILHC
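PathHunter beta-arrestin assay in DiscoveRx D2 cells. Compounds were added with an EC20 of dopamine (50 nM final) for 90 min at 37 deg C. Luminescence was read 1 h after detection reagent, with 57 uM dopamine as the EC100 control.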
D2 agonist: agonists of human D2 dopamine receptor (beta-arrestin); P14416; activation, % (concentration not given with the values); DiscoveRx PathHunter D2 beta-arrestin, luminescence, 90 min; 100% = 57 uM dopamine signal; actives 0.084% (n = 360,000); AID 624465; in the data active = activation above about 40%; inconclusive = about 15% to 40%; inactive = below about 15%; also: compound concentration not given in the record; the text of the record calls up to 30% inactive
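DiscoveRx PathHunter D2 beta-arrestin cells (2,100/well) attached overnight, then compound-stimulated 90 min at 37 C in HBSS/10 mM HEPES/0.1% Tween-20 buffer; beta-galactosidase complementation read by luminescence after 1 h at ambient temperature. Dopamine 57 uM final (EC100) as control.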
TRPML1 agonist: human mucolipin-1 channel agonism; Q9GZU1; TRPML1-expressing cells, Ca2+ dye fluorescence, FDSS; host cell line not named in the record; reference of the full effect not given here; activation, % (concentration not given with the values); actives 0.12% (n = 410,000); AID 624414; in the data active = activation above about 50%; inconclusive = about 30% to 50%; inactive = below about 30%; also: 0% is about no effect; the text of the record puts the active cut at 80%
Target sequence (Q9GZU1 whole entry, looked up): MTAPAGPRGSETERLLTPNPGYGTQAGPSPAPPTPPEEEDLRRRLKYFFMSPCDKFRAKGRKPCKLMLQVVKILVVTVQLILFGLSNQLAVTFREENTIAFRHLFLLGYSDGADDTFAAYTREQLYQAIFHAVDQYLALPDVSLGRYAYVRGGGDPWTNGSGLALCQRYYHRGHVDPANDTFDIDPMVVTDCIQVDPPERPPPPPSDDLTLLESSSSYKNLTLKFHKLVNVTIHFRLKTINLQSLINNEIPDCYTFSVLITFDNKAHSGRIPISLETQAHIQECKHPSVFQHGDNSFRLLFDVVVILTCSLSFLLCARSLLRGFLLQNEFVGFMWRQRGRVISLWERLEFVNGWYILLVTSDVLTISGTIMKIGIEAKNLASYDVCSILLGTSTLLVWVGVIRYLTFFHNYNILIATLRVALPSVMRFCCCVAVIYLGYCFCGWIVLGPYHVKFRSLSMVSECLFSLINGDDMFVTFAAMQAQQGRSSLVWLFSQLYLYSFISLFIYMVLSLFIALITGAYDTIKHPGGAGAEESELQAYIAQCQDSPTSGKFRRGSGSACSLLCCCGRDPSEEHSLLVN
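TRPML1-DL cells, Tet-induced overnight (~16 h, 37 degrees C), loaded 45-90 min at room temperature with Ca8 no-wash calcium dye plus quencher. FDSS fluorescence: 10 s baseline, compound pin-transfer, 110 s agonist read, then EC80 54-4 (4uM final) and 110 s antagonist read.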
TRPML1 blocker: human mucolipin-1 channel inhibition | Q9GZU1 | TRPML1-inducible cells, Ca2+ dye fluorescence, FDSS; stronger effect = lower value; inhibition of EC80 agonist-evoked calcium signal | activity change, negative = inhibition, % (concentration not given with the values) | actives 0.02% (n = 390,000); in the data active means activity change below about -50%; inconclusive means about -30% to -50%; inactive means above about -30%;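 also: stimulus is agonist 54-4 at its EC80 concentration; % is scaled to controls: 0 for no effect and ±100 for the full control effect; compound concentration not given in the record; the text of the record puts the active cut at -80%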
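Tet-induced TRPML1-DL cells loaded with Ca8 no-wash calcium dye were read kinetically on FDSS. Compound addition was followed by EC80 agonist 54-4 (4 uM final); inhibition was read over 110 s.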
Active calls of the source: *; [ ] = remark or other dose.

Screening COc1ccc2c(c1)n([O-])c1c([n+]2=O)CCC1 returned Six1-Eya2 blk -4, PINK1 modulator -0.4%, D2 PAM 7, D2 agonist 3.7, TRPML1 agonist 0.6 and TRPML1 blocker 27.
Screening Cc1ccc(C(=O)/C=C2\NCC(C)NC2=O)cc1 (configuration not stated) returned Six1-Eya2 blk 0, PINK1 modulator -1.1%, D2 PAM 12, D2 agonist -2.6, TRPML1 agonist -0.8 and TRPML1 blocker 31.
CCOC(=O)c1c(-c2ccccc2)csc1NC(=O)c1ccc(S(=O)(=O)N2CCOCC2)cc1 was read as Six1-Eya2 blk 7, PINK1 modulator 13%, D2 PAM 2, D2 agonist -1.1, TRPML1 agonist -0.4 and TRPML1 blocker -8.
Screening COc1ccc(NC(=O)CC(=O)Nc2ccc(OC)cc2)cc1 returned Six1-Eya2 blk 8, PINK1 modulator 5.3%, D2 PAM 0, D2 agonist -3.0, TRPML1 agonist 1.5 and TRPML1 blocker 6.
`CC(=O)NCCNc1ccc([N+](=O)[O-])cn1` gave Six1-Eya2 blk 9, PINK1 modulator 1.8%, D2 PAM -10, D2 agonist 0.8, TRPML1 agonist 0.9 and TRPML1 blocker 3.
`Cc1[nH]c2ccccc2c1C(=O)CSc1nccc(=O)[nH]1` gave Six1-Eya2 blk -2, PINK1 modulator 0.3%, D2 PAM -6, D2 agonist -0.7, TRPML1 agonist 0.1 and TRPML1 blocker -5.
N#C/C(=C\c1c(Cl)cccc1Cl)c1nc2ccccc2[nH]1 was read as Six1-Eya2 blk -3, PINK1 modulator inconclusive, D2 PAM -26, D2 agonist -2.1, TRPML1 agonist 1.6 and TRPML1 blocker inconclusive.
CCOC(=O)C1(CC2CCCCO2)CCN(S(=O)(=O)c2c(C)nn(C)c2C)CC1 (configuration not stated) was read as Six1-Eya2 blk 0, PINK1 modulator -1.9%, D2 PAM -42, D2 agonist -0.5, TRPML1 agonist 0.7 and TRPML1 blocker 11.
O=C(CCCN1C(=O)/C(=C\c2cccs2)SC1=S)Nc1cccc(C(=O)O)c1 was read as Six1-Eya2 blk -14, PINK1 modulator -0.3%, D2 PAM -7, D2 agonist -0.1, TRPML1 agonist 1.3 and TRPML1 blocker -4.
For CCOC(=O)N(C)c1c(CC)nc2c(OCc3ccccc3)cccn12 the results were Six1-Eya2 blk 1, PINK1 modulator 2.7%, D2 PAM -13, D2 agonist -1.8 and TRPML1 agonist -1.0.
`COc1ccccc1Oc1ccc2c(c1)C(=O)N(CC(=O)O)C2=O` gave Six1-Eya2 blk 3, PINK1 modulator 1.4%, D2 PAM -5, D2 agonist -3.6, TRPML1 agonist -0.1 and TRPML1 blocker -4.
Screening CCn1c(Cc2ccccc2)nnc1SCc1nc2ccccc2c(=O)[nH]1 returned Six1-Eya2 blk 0, PINK1 modulator inconclusive, D2 PAM -5, D2 agonist -3.8, TRPML1 agonist -0.4 and TRPML1 blocker -2.
Screening Cc1ccc(C)c(Cn2c(C)nc3c(sc(=S)n3-c3ccccc3)c2=O)c1 returned Six1-Eya2 blk -4, PINK1 modulator 4.3%, D2 PAM -19, D2 agonist -0.7, TRPML1 agonist -0.3 and TRPML1 blocker -8.
`COc1ccc(N2C(=O)CC(c3ccc([N+](=O)[O-])cc3)C2=O)cc1` (configuration not stated) gave Six1-Eya2 blk -2, PINK1 modulator -0.8%, D2 PAM -4, D2 agonist 3.0, TRPML1 agonist 0.6 and TRPML1 blocker 20.
`CC1(C)OC2COC(c3[nH]nc4c(=O)[nH]c(=O)[nH]c34)C2O1` (configuration not stated) gave Six1-Eya2 blk -3, PINK1 modulator 1.5%, D2 PAM -9, D2 agonist -8.1, TRPML1 agonist 0.1 and TRPML1 blocker 18.
Screening CCOc1ccccc1C=Nc1ccccc1C(=O)Nc1ccccc1 returned Six1-Eya2 blk 3, PINK1 modulator 0.1%, D2 PAM -2, D2 agonist -0.2, TRPML1 agonist -0.3 and TRPML1 blocker 7.
Screening CCOc1ccc(-c2nnn(CC(=O)c3ccc4c(c3)OCCO4)n2)cc1OCC returned Six1-Eya2 blk -2, PINK1 modulator -0.4%[38.3 µM], D2 PAM 0, D2 agonist -2.6, TRPML1 agonist 2.5 and TRPML1 blocker -3.
`Cc1ccc(C(=O)NCCC(=O)N2CCC3(CC2)NCCc2[nH]cnc23)cc1C` gave Six1-Eya2 blk -2, PINK1 modulator 1.3%, D2 PAM -7, D2 agonist -1.6, TRPML1 agonist -0.3 and TRPML1 blocker 21.
CC(=O)Nc1cccc(/C(C)=N/NC(=O)c2ccc(Cl)cc2Cl)c1 was read as Six1-Eya2 blk -1, PINK1 modulator 0.7%, D2 PAM -9, D2 agonist -0.3, TRPML1 agonist -1.0 and TRPML1 blocker 12.
Cc1ccc(NC(=O)CN(Cc2ccccc2)S(C)(=O)=O)cc1C was read as Six1-Eya2 blk 0, PINK1 modulator -2.5%[38.3 µM], D2 PAM -13, D2 agonist -3.0, TRPML1 agonist -0.4 and TRPML1 blocker 22.
For Cc1nonc1OCCNCc1c(C(=O)N2CCCCCCC2)nc2ccc(Cl)cn12 the results were Six1-Eya2 blk 4, PINK1 modulator 3.1%, D2 PAM -9, D2 agonist 7.3, TRPML1 agonist 0.6 and TRPML1 blocker inconclusive.
COc1cc(CCCN2C(=S)NC[C@@H]2CC2CCCCC2)cc(OC)c1OC was read as Six1-Eya2 blk 14, PINK1 modulator 1.7%, D2 PAM -6, D2 agonist 0.3, TRPML1 agonist 1.8 and TRPML1 blocker -15.
For O=C(NCCCl)Nc1cc([N+](=O)[O-])ccc1Cl the results were Six1-Eya2 blk 7, PINK1 modulator 2.2%, D2 PAM -12, D2 agonist -3.9, TRPML1 agonist 0.0 and TRPML1 blocker -7.
Screening CC(C)(C)C(=O)CN1C(=O)NC(C)(Cc2ccc3c(c2)OCO3)C1=O (configuration not stated) returned Six1-Eya2 blk -1, PINK1 modulator 3.2%, D2 PAM -5, D2 agonist -2.1, TRPML1 agonist -0.6 and TRPML1 blocker 14.
`O=C(Cc1ccc(NS(=O)(=O)c2ccc(Cl)c(Cl)c2)cc1)NCCN1CCOCC1` gave Six1-Eya2 blk 6, PINK1 modulator -2.7%, D2 PAM -10, D2 agonist -0.6, TRPML1 agonist 0.1 and TRPML1 blocker -5.
CC1CN(S(=O)(=O)c2cccc(C(=O)N(C)C3CCN(C)CC3)c2)CC(C)O1 (configuration not stated) was read as Six1-Eya2 blk 1, PINK1 modulator -0.3%, D2 PAM -4, D2 agonist 1.6, TRPML1 agonist -1.0 and TRPML1 blocker -12.
`CN1CCC(=C2c3ccccc3C=Cc3ccccc32)CC1` gave Six1-Eya2 blk -2, PINK1 modulator 0.2%, D2 PAM 11, D2 agonist -5.2, TRPML1 agonist 0.2 and TRPML1 blocker 8.
`Cc1ccc(CC(=O)Nc2ccccc2N2CCOCC2)cc1C` gave Six1-Eya2 blk 0, PINK1 modulator 0.1%, D2 PAM -1, D2 agonist -2.3, TRPML1 agonist 1.3 and TRPML1 blocker 3.
For COc1ccc(CC(=O)N2CC3(C)CC2CC(C)(C)C3)cc1 (configuration not stated) the results were Six1-Eya2 blk 1, PINK1 modulator 2.0%[38.3 µM], D2 PAM -14, D2 agonist -3.6, TRPML1 agonist -0.3 and TRPML1 blocker 7.
`O=C(NCCc1ccccc1F)C(=O)Nc1nccs1` gave Six1-Eya2 blk 11, PINK1 modulator -0.1%, D2 PAM -1, D2 agonist 1.1, TRPML1 agonist -0.9 and TRPML1 blocker -3.
Screening CCCCn1c(-c2ccccc2C)nc2cc3[nH]c(=O)c(C(C)C)nc3cc21 returned Six1-Eya2 blk -7, PINK1 modulator -0.2%, D2 PAM 3, D2 agonist 3.4, TRPML1 agonist 0.2 and TRPML1 blocker 26.
For CCOc1ccc(S(=O)(=O)Nc2ccc(C(=O)NCC(c3ccco3)N3CCCCC3)cc2)cc1 (configuration not stated) the results were Six1-Eya2 blk -8, PINK1 modulator 2.4%, D2 PAM -9, D2 agonist -2.4, TRPML1 agonist 0.9 and TRPML1 blocker -1.
For COc1ccc(C(=O)NNC(=O)Cc2nc3ccccc3n2C)cc1 the results were Six1-Eya2 blk -25, PINK1 modulator 1.6%, D2 PAM -3, D2 agonist 0.2, TRPML1 agonist 0.3 and TRPML1 blocker 8.
For COc1cc2cnc(-c3ccccc3)c(-c3ccc(C(F)(F)F)cc3)c2cc1OC the results were Six1-Eya2 blk 3, PINK1 modulator 23%, D2 PAM 4, D2 agonist -3.7, TRPML1 agonist -0.1 and TRPML1 blocker -1.
Screening CC(C)N1CCN(Cc2ccc(Oc3ncccn3)cc2)CC1CCO (configuration not stated) returned Six1-Eya2 blk 2, PINK1 modulator 0.2%, D2 PAM -10, D2 agonist -4.4, TRPML1 agonist 0.1 and TRPML1 blocker 2.
Cc1c(C(=O)N(C)C)sc2c1c(=O)n(-c1ccc(Cl)c(Cl)c1)c(=O)n2CC(=O)Nc1ccc(Br)cc1F was read as PINK1 modulator -1.1%, TRPML1 agonist 1.1 and TRPML1 blocker -9.
Cc1ccc(NC(=O)COc2ccc(N(C)C(=O)C(C)(C)C)cc2)cc1S(=O)(=O)N1CCCCC1 was read as Six1-Eya2 blk -1, PINK1 modulator 3.4%, D2 PAM 1, D2 agonist 0.7, TRPML1 agonist 1.6 and TRPML1 blocker 20.
CN(CC(=O)Nc1cc(Cl)ccc1C#N)C1CCS(=O)(=O)C1 (configuration not stated) was read as Six1-Eya2 blk 5, PINK1 modulator 0.6%, D2 PAM -2, D2 agonist 0.0, TRPML1 agonist 0.7 and TRPML1 blocker -3.
For O=C(O)c1ccc(NC(=O)c2cccc(C(=O)Nc3ccc(C(=O)O)cc3)n2)cc1 the results were Six1-Eya2 blk -26, PINK1 modulator 0.8%, D2 PAM -10, D2 agonist 6.7, TRPML1 agonist 0.2 and TRPML1 blocker 12.
Screening CCC12CN3CCN(CC(C3)/C1=N\NC(=O)c1ccc(Cl)cc1)C2 returned Six1-Eya2 blk 0, PINK1 modulator -0.7%, D2 PAM -11, D2 agonist 1.7, TRPML1 agonist -0.7 and TRPML1 blocker -7.
`O=C(Nc1ccc(OC(F)(F)F)cc1)c1ccc2c(c1)no[n+]2[O-]` gave Six1-Eya2 blk -1, PINK1 modulator -3.3%, D2 PAM 28, D2 agonist inconclusive, TRPML1 agonist -0.7 and TRPML1 blocker -11.
`COC(=O)c1cc(OC)c(OC)cc1NC(=S)NC(=O)c1ccco1` gave Six1-Eya2 blk -15, PINK1 modulator 1.5%, D2 PAM -3, D2 agonist -6.0, TRPML1 agonist -0.6 and TRPML1 blocker 35.

A run of entries from further up, as a working copy:
`O=C(Nc1ccc(OC(F)(F)F)cc1)c1ccc2c(c1)no[n+]2[O-]` gave Six1-Eya2 blk -1, PINK1 modulator -3.3%, D2 PAM 28, D2 agonist inconclusive, TRPML1 agonist -0.7 and TRPML1 blocker -11.
`COC(=O)c1cc(OC)c(OC)cc1NC(=S)NC(=O)c1ccco1` gave Six1-Eya2 blk -15, PINK1 modulator 1.5%, D2 PAM -3, D2 agonist -6.0, TRPML1 agonist -0.6 and TRPML1 blocker 35.
